# H5N1 antiviral: MDCK cell protection from H5N1 avian flu; cytopathic effect, luminescence, 72 h; hits give high values; no value below 0 was filed and about half of the inactive calls have no number; reference of the scale not given here; 0.07% of 96,000 active; inhibition, % at 50 µM; AID 740; in the data active = inhibition above about 25%
# * hit, by the source's call; i = inactive. These rows are one share of the data. The share of hits here may be higher or lower than overall.
molecule	H5N1 antiviral
CCOC(=O)N1CCC(NC(=O)CCc2c(C)nc3ncnn3c2C)CC1	0.4
COc1ccc(N2C(=O)CC(n3c(CCCCO)nc4ccccc43)C2=O)cc1 (stereo unspecified)	i
CCC1(C(=O)O)NC(c2cc(OC)ccc2O)C2C(=O)N(Cc3ccccc3)C(=O)C21 (stereo unspecified)	i
COC(=O)C1CCN(c2cc(=O)n(-c3ccccc3Cl)c(=O)[nH]2)CC1	0.6
c1ccc(-n2ncc3c(N4CCCC4)ncnc32)cc1	i
COc1ccc(CCNC2CC(=O)N(CCc3ccc(OC)c(OC)c3)C2=O)cc1OC (stereo unspecified)	i
COc1ccc(N2C(=O)CC(Sc3nc(C)c4c(n3)CCCC4)C2=O)cc1 (stereo unspecified)	i
O=C(O)c1cccc(N2C(=O)c3cccnc3C2=O)c1	i
COc1ccc(CCNC(=O)CSc2nnc(Cc3csc(N)n3)n2C)cc1OC	0.9
O=S(=O)(c1ccc(S(=O)(=O)N(Cc2cccs2)CC2CCCO2)cc1)N1CCCCC1 (stereo unspecified)	4.2
O=C(O)Cn1nc2ccccc2n1	i
COC(=O)C1=C(C)NC(C)=C(C(=O)OC)C1c1ccccn1	i
Cc1cccc(NC2=NCCCS2)c1C	i
CCCOc1ccc2c3c(c(=O)oc2c1OCCC)CCC3	0.2
O=C1CC(Cc2ccccc2)C(=O)N1Cc1ccco1 (stereo unspecified)	i
Nc1cccc(-c2cn3cc(C(F)(F)F)cc(Cl)c3n2)c1	0.2
CCOc1ccccc1N/C(=C(/C(Cl)=C(Cl)Cl)[N+](=O)[O-])n1cncn1	2.8
Nc1nc(SCC(=O)Nc2ccccc2)[nH]c(=O)c1-c1ccccc1	i
COC(=O)Nc1ccc(S(=O)(=O)N2CCC(Cc3ccccc3)CC2)cc1	0.2
COc1cccc(-c2nc(-c3ccccn3)no2)c1	i
COc1ccc(C(C(=O)NC2CCCCC2)N2CCC3(CC2)OCCO3)cc1 (stereo unspecified)	0.3
COC(=O)c1sc(S(=O)(=O)N2CCC(C)CC2)c(C(=O)OC)c1C	0.1
CCN(CC)S(=O)(=O)c1cc(C(=O)Nc2cccnc2)ccc1Cl	0.5
COc1ccc2nc(NC(=O)C3CCCN3S(=O)(=O)c3ccc(C)cc3)sc2c1 (stereo unspecified)	i
O=C(O)C1CC(=O)N(c2ccc(F)cc2)C1 (stereo unspecified)	0.4
O=C(C1COc2ccccc2O1)N1CCN(Cc2ccc3c(c2)OCO3)CC1 (stereo unspecified)	2.8
N#Cc1c(N)nc2c(c1-c1cccnc1)CCCCC2	i
CC(=O)N1CCN(S(=O)(=O)c2cccc(C(=O)NC3CCCc4ccccc43)c2)CC1 (stereo unspecified)	i
Cc1ccc(Cl)cc1N1CCN(S(=O)(=O)c2ccc3c(c2)oc(=O)n3C)CC1	0.4
CC1C(=NO)C(C)C(c2ccc(N(C)C)cc2)NC1c1ccc(N(C)C)cc1 (stereo unspecified)	0.8

# Retrieved by structure from the entries so far:
molecule	H5N1 antiviral
COC(=O)Nc1ccc(S(=O)(=O)N2CCC(Cc3ccccc3)CC2)cc1	0.2
COc1ccc(N2C(=O)CC(Sc3nc(C)c4c(n3)CCCC4)C2=O)cc1 (stereo unspecified)	i

# (cont.)
molecule	H5N1 antiviral
CCOC(=O)CCCNC(=O)CCNC(=O)c1ccc(OCC)cc1	i
Cc1noc(C)c1COc1cccc(C(=O)NCc2ccccc2Cl)c1	i
CCOP(=O)(c1ccccc1)C1(C#N)CCCC1 (stereo unspecified)	i
CCc1nc2ccccc2c(=O)n1-c1ccc2ccccc2c1	1.6
CNC(=O)CN1C(=O)C2C3C=CC(C3)C2C1=O (stereo unspecified)	i
COc1ccc(OC)c2sc(NC(=O)C3CC3)nc12	0.8
COC(=O)COc1ccc(S(=O)(=O)NC2CCCCCC2)cc1	1.3
COC(=O)Nc1ccc(S(=O)(=O)Nc2ccc(O)cc2)cc1	1.6
CCOCCOC(=O)CCSc1n[nH]c(=O)[nH]c1=O	i
O=[N+]([O-])c1cc(S(=O)(=O)Nc2cccc(C(F)(F)F)c2)ccc1-n1nnc2ccccc21	0.2
COC(=O)NCc1ccc(S(=O)(=O)N2CCOCC2)cc1	0.5
COc1ccc(C(=O)Nc2cc(C(C)=O)c(/C=C/N(C)C)oc2=O)cc1	0.3
CSCC[C@H](NC(=O)Nc1cccc(C(F)(F)F)c1)C(=O)O	0.5
O=C1OC(Oc2ccccc2)(c2ccccc2)c2ccccc21 (stereo unspecified)	i
CCOC(=O)C1C2C=CC3(CN(Cc4cccs4)C(=O)C13)O2 (stereo unspecified)	i
O=C(NCc1cccc(C(F)(F)F)c1)c1cc(Cl)cc(Cl)c1	i
COc1ccc(C(=O)NCc2ccccc2OC)cc1	0.6
CCOC(=O)C1C(=O)C(C(=O)OCC)C(c2cccnc2)NC1c1cccnc1 (stereo unspecified)	i
Cc1cc(Cl)ccc1Oc1cccc(C(=O)/C(C#N)=C/N(C)C)c1	0.7
Cc1ccc(-c2cc(C(=O)NC3=NCCS3)c3cc(Br)ccc3n2)o1	i
COc1ccc(-n2nnc3c(=O)n(CC(=O)OCc4ccccc4)cnc32)cc1	i
COC(=O)CN1C(=S)N(c2ccc(Cl)cc2)C(=O)C1CC(=O)Nc1ccc(Cl)cc1 (stereo unspecified)	0.6
COc1cc(C(=O)NCCC2=CCCCC2)cc(OC)c1OC	3.2
COCCNC(=O)c1cn(Cc2c(F)cccc2Cl)nn1	i
CCOC(=O)NC(Nc1nnc(C)s1)(C(=O)OCC)C(F)(F)F (stereo unspecified)	i
CCn1c(SCC(=O)Nc2nc(C)cs2)nnc1-c1cccnc1	1.0
CC(CCc1ccccc1)NC(=O)c1cncc(Br)c1 (stereo unspecified)	i
Cc1cc(C)n2nc(C(=O)NCCc3ccccc3)nc2n1	0.8
Cc1ccc(-c2nnc3n2N=C(c2ccccc2Br)CS3)cc1	1.6
CCCSc1nsc(SCCC)c1C(N)=O	i

# Structures shown so far with fluorine (7):
molecule	H5N1 antiviral
Nc1cccc(-c2cn3cc(C(F)(F)F)cc(Cl)c3n2)c1	0.2
O=C(O)C1CC(=O)N(c2ccc(F)cc2)C1 (stereo unspecified)	0.4
O=[N+]([O-])c1cc(S(=O)(=O)Nc2cccc(C(F)(F)F)c2)ccc1-n1nnc2ccccc21	0.2
CSCC[C@H](NC(=O)Nc1cccc(C(F)(F)F)c1)C(=O)O	0.5
O=C(NCc1cccc(C(F)(F)F)c1)c1cc(Cl)cc(Cl)c1	i
COCCNC(=O)c1cn(Cc2c(F)cccc2Cl)nn1	i
CCOC(=O)NC(Nc1nnc(C)s1)(C(=O)OCC)C(F)(F)F (stereo unspecified)	i

# Additional entries follow.
Molecule	H5N1 antiviral
C=CCc1cc(C)ccc1OCC(O)CN1CCN(c2ccccc2)CC1 (stereo unspecified)	i
COC(=O)c1c(C)[nH]c(C(=O)C(Cc2ccccc2)N(C)C)c1C (stereo unspecified)	i
Cc1ccccc1Cn1c(CN2CCN(C(=O)c3ccco3)CC2)nc2c1c(=O)n(C)c(=O)n2C	2.8
CNCCCc1ccccc1	i
CCc1nc2ccccc2n1CCC(C)C	1.0
O=C(CSc1nc(-c2ccccc2)c(-c2ccccc2)[nH]1)NCCN1C(=O)CSC1=O	1.6
CCNC(=S)NS(=O)(=O)c1ccc(CC)cc1	i
N#CCCSc1ccccc1NC(=O)c1ccc(S(=O)(=O)N2CCCC2)cc1	i
CCc1ccc(/C=N/NC(=O)c2cc(-c3ccccc3OC)nc3ccccc23)s1	i
CCOC(=O)N1CCN(C(=O)CNC(=O)Cc2ccc(Cl)cc2)CC1	i
COc1ccc(C(C#N)Nc2ccccc2C)cc1 (stereo unspecified)	i
Cn1c(NC(=O)c2cccnc2)nc2ccccc21	1.7
Cc1ccc(C(=O)COc2nc(C)cc(C)c2C#N)cc1	0.2
COc1cccc(C2CC(c3ccccc3Cl)n3nnnc3N2)c1 (stereo unspecified)	3.0
CC1Cc2ccccc2N1C(=O)CSc1nnc(-c2ccccc2)c(-c2ccccc2)n1 (stereo unspecified)	0.7

# Next section.
Molecule	H5N1 antiviral
CCOC(=O)c1cccc(NC(=O)C2CCCN(S(=O)(=O)c3c(C)n[nH]c3C)C2)c1 (stereo unspecified)	0.2
CC(C)c1nnc(NC(=O)c2ccc(N3C(=O)CCC3=O)cc2)s1	1.7
COc1ccc(C2(C(=O)N3CCOCC3)CCOCC2)cc1OC	0.2
O=C(CN1CCN(C(=O)c2ccccc2F)CC1)Nc1ccc(Br)cc1	i
Cc1cccc(-n2ncc3c(NCCc4ccc(S(N)(=O)=O)cc4)ncnc32)c1	i
CCOc1ccc(C(=O)NCC2CCCO2)cc1 (stereo unspecified)	i
O=C(CSc1nc(O)c(C2CCCCC2)c(=O)[nH]1)NCC1CCCO1 (stereo unspecified)	i
Cc1nnc(NC(=O)CSc2nnc(CCc3nc4ccccc4[nH]3)n2C)s1	1.1
CCNC(=O)CC1C(=O)N(c2ccc(OC)cc2)C(=O)N1Cc1ccc(OC)cc1 (stereo unspecified)	0.1
Cc1ccc(NC(=O)C2C3C=CC4(CN(Cc5cccnc5)C(=O)C24)O3)cc1 (stereo unspecified)	i
c1ccc(N2CCN(c3nc4ccccc4n4nnnc34)CC2)cc1	1.2
CNc1nc(-c2ccccc2)nnc1C(F)(F)F	i
Cc1cc(Nc2nc3c(c(=O)n(C)c(=O)n3C)n2C)n(-c2ccc(Cl)cc2)n1	0.1
O=C(NNS(=O)(=O)c1ccccc1)C1CCN(S(=O)(=O)c2ccc(Cl)cc2)CC1	0.7
CCOC(=O)CNc1c(-c2ccc(F)cc2)nc2cnccn12	i

# Other structures follow:
Molecule	H5N1 antiviral
O=C1c2cccc3c([N+](=O)[O-])ccc(c23)C(=O)N1c1nccs1	1.0
CCOC(=O)c1c(N)sc2c(O)c(Br)ccc12	i
O=C1CCC(=O)N1CNc1cccnc1	i
Cn1c(SCC(=O)c2ccc3c(c2)OCO3)nnc1C1COc2ccccc2O1 (stereo unspecified)	i
COc1ccc(-c2ccc3c(N)c(C(=O)c4ccc(OC)c(OC)c4)sc3n2)cc1	i
CCc1ccc(N2CC(C(=O)Nc3nccs3)CC2=O)cc1 (stereo unspecified)	0.7
O=C(CCSc1nc(-c2ccc3c(c2)OCO3)cc(C(F)(F)F)n1)NCc1ccco1	i
CCN1C(=O)C(CC(=O)NC2CCCCC2)N(CC)C1=O (stereo unspecified)	i
Cc1nn(-c2ccccc2)c2sc(C(=O)N(CC(=O)NC3CCCC3)Cc3ccco3)cc12	i
COc1ccc(NC(=O)C2c3cc(OC)c(OC)cc3C(=O)N(C)C2c2cccnc2)cc1OC (stereo unspecified)	i
C=CC[n+]1c(-c2ccc(OCC)cc2)csc1NNC(=O)Nc1ccccc1	0.1
COc1ccc(OC)c(-c2nnc(SCC(=O)N3CCOCC3)o2)c1	0.2
COc1cccc(N2CCN(C(=O)c3ccc(N4C(=O)NC5CC4(C)Oc4ccccc45)cc3)CC2)c1 (stereo unspecified)	2.2
O=S(=O)(NCCc1cn2ccccc2n1)c1cccs1	2.6
COc1ccc(-c2cc(C(F)(F)F)c(C#N)c(SCC(=O)Nc3ccc(C)cc3)n2)cc1	0.1

# Arranged by number of heavy atoms (ascending): some entries from above.
Molecule	H5N1 antiviral
CCc1ccc(N2CC(C(=O)Nc3nccs3)CC2=O)cc1 (stereo unspecified)	0.7
O=C1c2cccc3c([N+](=O)[O-])ccc(c23)C(=O)N1c1nccs1	1.0
COc1ccc(OC)c(-c2nnc(SCC(=O)N3CCOCC3)o2)c1	0.2
C=CC[n+]1c(-c2ccc(OCC)cc2)csc1NNC(=O)Nc1ccccc1	0.1
O=C(CCSc1nc(-c2ccc3c(c2)OCO3)cc(C(F)(F)F)n1)NCc1ccco1	i

# Next structures:
Molecule	H5N1 antiviral
Cc1ccc(CNC(=O)CSc2c3c(nc4ccc(Cl)cc24)CCCC3)o1	2.2
Cc1cc2oc(C(=O)N(Cc3ccco3)C3CCS(=O)(=O)C3)cc(=O)c2cc1Cl (stereo unspecified)	1.2
NC(=O)c1ccc(-n2nnnc2SCc2ccccc2)cc1	i
COC(=O)C1=C(CSc2nncn2C)NC(=O)NC1c1cc(C)ccc1C (stereo unspecified)	0.4
CCC(C)OC(=O)c1[nH]c2c(c1C)C(=O)CC(c1ccc(N(C)C)cc1)C2 (stereo unspecified)	i
CC1CCc2nc(NC(=O)C3COc4ccccc4O3)sc2C1 (stereo unspecified)	1.1
Cc1cc(C(=O)OCC(=O)NC2CCS(=O)(=O)C2)c(C)n1-c1ccccc1 (stereo unspecified)	0.9
O=C(O)c1cc2c(o1)CCC/C2=N\O	i
CCOC(=O)NCc1ccc(S(=O)(=O)Nc2ccccc2C)cc1	1.1
CC(O)CNc1nc2c(c(=O)n(C)c(=O)n2C)n1C/C=C/c1ccccc1 (stereo unspecified)	0.3
COc1cc(OC)c(NC(=O)CS(=O)(=O)Cc2nc(-c3ccc(C)cc3)oc2C)cc1Cl	i
COC(=O)c1ccccc1NC(=O)c1c(Br)cnn1C	1.1
O=C1N=c2ccccc2=C1c1sc(=S)n(CC2CCCO2)c1O (stereo unspecified)	12
Clc1ccc(OCCCNCc2ccccc2)c(Br)c1	i
COc1ccc(OC)c(NC(=O)c2c(NC(=O)CNCc3ccco3)sc3c2CCC3)c1	i

# Next results
Molecule	H5N1 antiviral
O=C(N/N=C/c1cccnc1)c1ccc([N+](=O)[O-])cc1Cl	1.5
C=CCn1c(SCn2nnc3ccccc3c2=O)nnc1-c1ccc(Cl)cc1	0.5
COc1ccc(OC)c(NC(=O)CN2CCN(C(=O)c3ccco3)CC2)c1	0.2
CCOc1ccc(/C(O)=C2/C(=O)C(=O)N(CCCn3ccnc3)C2c2cccs2)cc1Cl (stereo unspecified)	2.8
Cc1ccc(S(=O)(=O)NC(=O)Nc2nnc(C)s2)cc1	0.1
O=C(NC(Cc1ccccc1)C(=O)N1CCN(c2ccccn2)CC1)c1ccco1 (stereo unspecified)	i
Nc1nc(COc2ccc3ccccc3c2)cs1	i
CC(C)NS(=O)(=O)c1ccc(OCC(=O)Nc2ccc3c(c2)OCO3)c(Cl)c1	1.4
Cc1cc(C)n2c(SCC(=O)Nc3cc(C)on3)nnc2n1	i
Cn1c(=O)n(-c2ccccc2)c(=O)c2c3c(sc21)COC(C)(C)C3	0.7
c1ccc(Nc2cccc(Nc3ccccc3)n2)cc1	i
